Bioassay records from PubChem.
KCNQ2 block: KCNQ2 potassium channel inhibitors, primary screen, cell-based, CHO-K1, FluxOR thallium flux, B-score (AID 2156); O88943; 20 min; hits give low values; only compounds with negative scores are shown here; some inactives read as strong as hits; B-score at 10 µM; actives 1.1% (n = 310,000);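 active means fluorescence ratio B-score at most minus 3 library SDs, with starting brightness B-score within 2 library SDs, cut at about -5.5 in these data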
Target sequence (O88943 whole entry, looked up): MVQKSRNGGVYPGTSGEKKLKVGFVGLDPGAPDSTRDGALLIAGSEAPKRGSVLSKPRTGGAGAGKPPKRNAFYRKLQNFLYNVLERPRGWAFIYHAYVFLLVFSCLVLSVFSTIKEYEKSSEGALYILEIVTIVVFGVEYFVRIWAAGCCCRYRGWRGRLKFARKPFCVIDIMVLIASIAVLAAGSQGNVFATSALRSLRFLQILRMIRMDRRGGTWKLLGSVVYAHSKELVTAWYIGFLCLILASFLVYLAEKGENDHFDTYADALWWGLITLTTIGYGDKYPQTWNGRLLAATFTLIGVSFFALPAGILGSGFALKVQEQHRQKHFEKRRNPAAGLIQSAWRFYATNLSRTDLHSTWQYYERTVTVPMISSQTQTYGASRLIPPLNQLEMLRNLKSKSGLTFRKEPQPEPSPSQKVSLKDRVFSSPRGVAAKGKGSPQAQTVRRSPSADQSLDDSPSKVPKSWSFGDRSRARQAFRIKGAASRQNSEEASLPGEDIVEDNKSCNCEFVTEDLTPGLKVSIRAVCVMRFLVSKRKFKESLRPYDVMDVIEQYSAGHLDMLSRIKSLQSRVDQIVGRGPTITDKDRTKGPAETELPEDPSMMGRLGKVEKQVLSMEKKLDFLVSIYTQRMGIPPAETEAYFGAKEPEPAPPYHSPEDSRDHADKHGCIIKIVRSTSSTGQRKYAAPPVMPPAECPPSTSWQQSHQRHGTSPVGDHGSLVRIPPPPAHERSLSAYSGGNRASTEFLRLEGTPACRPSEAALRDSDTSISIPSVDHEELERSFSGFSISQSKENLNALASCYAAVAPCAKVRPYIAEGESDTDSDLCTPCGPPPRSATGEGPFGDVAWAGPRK
KCNQ2 block baseline: also measured in KCNQ2 block; calls as there; B-score; measured here: initial fluorescence intensity artifact check;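 brightness before thallium and not channel activity; 0 = typical well and far values either way flag optical interference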
Active calls of the source: *; i = inactive.

KCNQ2 block baseline	KCNQ2 block	SMILES
0.8	i	COC(=O)C(NC(=O)c1ccccc1)(Nc1cc(C)cc(C)n1)C(F)(F)F (stereo unspecified)
0.07	i	Cc1ccc(NC(=O)c2c(Cl)n(C)c3ccccc23)cc1
-0.66	i	Cn1c(CCNC(=O)c2ccco2)nc2cc(NC(=O)c3ccco3)ccc21
-0.38	i	Cc1ccc(N2CC(C(=O)N3CCN(C(=O)c4ccco4)CC3)CC2=O)cc1 (stereo unspecified)
1.8	i	CC1CCCCC1NC(=O)CN1CCN(Cc2ccccc2Cl)C1=O (stereo unspecified)
0.35	i	COCCN(C(=O)CCC(=O)Nc1nccs1)C(C(=O)NC(C)(C)C)c1ccc(F)cc1 (stereo unspecified)
-0.29	i	O=C(Nc1cccc(Cl)c1)c1cnn2cccnc12
0.21	i	Cc1ccc(Nc2nc3ccccc3n3nnnc23)cc1
0.34	i	CCc1cccc(NC(=O)c2cc(S(=O)(=O)N(C)C)ccc2N2CCCC2)c1
-0.02	i	COc1ccc(-c2nc3ccccc3nc2-c2ccc(OC)c(OC)c2)cc1OC
-0.6	i	CCN(CC(=O)Nc1cc(Cl)ccc1C)C(=O)c1cc(S(=O)(=O)N2CCCCCC2)ccc1OC
0.25	i	COc1cc(C2SCC(=O)N2CCCN(C)C)cc(OC)c1OC (stereo unspecified)
0.7	i	CC(C)c1ccc(N(C(=O)CNC(=O)c2ccco2)C(C(=O)NC2CCCC2)c2ccncc2)cc1 (stereo unspecified)
0.25	i	Cc1ccc(C2(c3noc(CN(C)Cc4ccccn4)n3)CCCC2)cc1
-0.75	i	O=C(N/N=C/c1cccnc1)c1cccc(NC(=O)c2ccccc2Cl)c1

For reference, some entries already given:
KCNQ2 block baseline	KCNQ2 block	SMILES
0.8	i	COC(=O)C(NC(=O)c1ccccc1)(Nc1cc(C)cc(C)n1)C(F)(F)F (stereo unspecified)
0.07	i	Cc1ccc(NC(=O)c2c(Cl)n(C)c3ccccc23)cc1

(more compounds)
KCNQ2 block baseline	KCNQ2 block	SMILES
1.5	i	CC1CCCC(C)N1CCNC(=O)CCn1nc(-c2ccccc2)ccc1=O (stereo unspecified)
1.2	i	Cc1ccc(NS(=O)(=O)c2cccc(C(=O)NCCc3c[nH]c4ccccc34)c2)c(C)c1
0.56	i	Cc1nn(-c2ccccc2)c(Cl)c1/C=C1\SC(=S)N(C)C1=O
-0.15	i	CCOC(=O)c1c(C)[nH]c(C)c1S(=O)(=O)N1CCN(C(=O)c2ccco2)CC1
-0.03	i	O=C(Nc1ccc(O)c(-c2nc3ccccc3s2)c1)C1=COCCO1
1.2	i	CC(=O)N1CCCN(Cc2cn(-c3cc(C)ccc3C)nc2-c2ccccc2)CC1
-0.42	i	O=C(CCS(=O)(=O)c1ccc(Br)cc1)Nc1ccccn1
-0.92	i	CCN(CC)S(=O)(=O)c1ccc(N2CCc3ccccc3C2)nc1
0.12	i	Cc1ccc(Cn2c(CN3CC(C)OC(C)C3)nc3c2c(=O)[nH]c(=O)n3C)cc1 (stereo unspecified)
-0.29	i	COc1cc(CN(C2CCCCC2)S(=O)(=O)c2ccc(S(=O)(=O)N(C)C3CCCCC3)cc2)cc(OC)c1OC
1.6	i	Nc1c2c(nc3ccccc13)CSCC2
-0.96	i	Cc1cc(=O)n2nc(N3CCCC3C(=O)Nc3cccc(F)c3)sc2n1 (stereo unspecified)
-0.11	i	CN(c1ccccc1)S(=O)(=O)c1ccc2[nH]c(=O)oc2c1
0.67	i	CC1CCN(CCOc2ccc(C(=O)c3ccccc3)cc2)CC1
2.1	i	COC(=O)c1cccc(N(C(=O)c2cnccn2)C(C(=O)NCc2ccccc2)c2ccco2)c1 (stereo unspecified)
-1.5	i	CC(C)N(C(=O)COC(=O)c1ccccc1C(=O)c1ccc(Cl)c([N+](=O)[O-])c1)C(C)C
0.9	i	C=CCCC(=O)Nc1ccc(COC(=O)N2CCOCC2)cc1
0.73	i	O=C(CCC(=O)N1CCCC1)N1CCCC1
-1.5	i	O=C(Nc1cccnc1)c1cc(-c2ccc(Cl)cc2Cl)on1
1.2	i	C/C(CCc1ccccc1)=N\NC(=O)c1ccccc1[N+](=O)[O-]
3.1	i	COc1ccc(/C=C/C(=O)O)cc1S(=O)(=O)N1CCCC1
-0.67	i	Cn1c(NC(=O)c2ccc(Cl)cc2Cl)cc(=O)n(C)c1=O
-1	i	CC1Oc2ccccc2N(CC(=O)N2CCCCC2)C1=O (stereo unspecified)
-0.3	i	COc1ccc(C)cc1NC(=O)CSc1nnc(-c2ccc(C)cc2)o1
-0.03	i	CCOC(=O)CSc1nnc(CSc2nc(C)cc(C)n2)n1Cc1ccco1
-1.8	i	Cc1ccc(NC(=O)c2ccc3nsnc3c2)c(Cl)c1
1.8	i	Cc1cccc(NC(=O)CSCC(=O)OCc2ccccn2)c1
0.02	i	O=[N+]([O-])c1ccc(O)c(/C=N\N=C2c3ccccc3-c3ccccc32)c1
3	i	CCOC(=O)c1c(NC(=O)CSc2ncn[nH]2)sc(C(C)=O)c1C
-0.47	i	COc1cc(/C=C(\C#N)C(=O)Nc2ccc3ccccc3c2)c([N+](=O)[O-])cc1OC
1.2*	-8.8*	Cc1cccc(NC(=O)c2ccc(COc3cccc4ccccc34)o2)n1
0.32	i	CC(=O)N1CCN(C(=O)c2ccc(S(=O)(=O)Nc3ccccc3C)cc2)CC1
-1	i	COc1ccc(CC(=O)Nc2cc(Cl)ccc2O)cc1
0.02	i	COCCN(C(=O)C(C)C)c1nnc(-c2ccc(C(C)(C)C)cc2)s1
1.2	i	O=C1CC(c2ccccc2)CN1Cc1ccccc1 (stereo unspecified)
0.02	i	Nc1nc(Cl)cc(Sc2ccc3ccccc3c2)n1
-0.24	i	CC(C)(C)N(Cc1ccccc1)C(=O)COC(=O)CNC(=O)c1ccco1
-3.3	i	CCOC(=O)N1CCN(Cc2nc3c(c(=O)[nH]c(=O)n3C)n2Cc2cc(C)ccc2C)CC1
-0.36	i	CC(C)[C@H](NC(=O)OC(C)(C)C)C(=O)N/N=C/c1ccc2nccnc2c1
0.15	i	Cc1cc(C)cc(NC(=S)NC(=O)CCN2C(=O)c3ccccc3C2=O)c1
0.31	i	COc1cccc(CNC(=O)C2CCCN(S(=O)(=O)c3c(C)[nH]c(=O)[nH]c3=O)C2)c1 (stereo unspecified)
0.06	i	CN(C)c1cc[n+](Cc2c(Cl)cccc2Cl)cc1
-0.38	i	Cc1ccc(-n2c3nc(=O)[nH]c(=O)c-3cc3c(C)nn(-c4ccccc4)c32)c(C)c1
-2.1	i	Cc1nc2cc(OCc3cc(C(=O)NC(C)c4cnn(C)c4)no3)ccc2s1 (stereo unspecified)
-0.44	i	CN1C[C@@H]2C(c3ccc(Cl)nc3)C3(c4ccccc4)CC2(C3)[C@H]1c1ccccc1 (stereo partly specified)
0.81	i	CCn1ccnc1CN(C)Cc1cn[nH]c1-c1ccc(F)cc1F
1.1	i	CC(=O)N1N=C(c2cccc([N+](=O)[O-])c2)OC1c1ccccc1Cl (stereo unspecified)
-0.04	i	O=C(CS(=O)(=O)c1ccc(F)cc1)NCCS(=O)(=O)c1ccccc1
0.06	i	COc1ccc(Nc2nc3ccc(C)cc3n3cnnc23)cc1Cl
-0.72	i	Cc1ccc2nc(NC(=O)C3CCN(S(=O)(=O)c4ccc5c(c4)oc(=O)n5C)CC3)sc2c1
-1.4	i	COc1ccccc1-n1c(C)nnc1SCC(=O)Nc1cccc(C(C)=O)c1
1	i	CC(=O)Nc1ccc(OC(=O)c2ccc(Br)c([N+](=O)[O-])c2)cc1
-2.6	i	Cc1ccc(S(=O)(=O)NCc2ccc(C(=O)N(C)CCC#N)cc2)cc1
-0.64	i	O=C(NCCc1ccc(Cl)cc1Cl)c1ccc2nc[nH]c2c1
-0.2	i	CCC1CN(C(=O)N2CCC(C(=O)NCc3ccccc3C)CC2)c2ccccc2O1 (stereo unspecified)
0.21	i	Cc1c2cnn(CC(=O)NCCN3CCOCC3)c(=O)c2c(C)n1Cc1ccccc1
-0.76	i	Cc1nn(-c2ccccc2)c(C)c1/C=N/NC(=O)c1cc(-c2ccccc2)n[nH]1
-0.07	i	Cc1c(Cl)cccc1NC(=O)CCN1CCCCCC1
1.6	i	COc1ccccc1NC(=O)COn1nnc2ccc(S(=O)(=O)N3CCOCC3)cc21
0.48	i	O=C1C2C(c3ccccc3)(C(=O)N1c1ccc(Cl)cc1)C2(c1ccccc1)c1ccccc1 (stereo unspecified)

Additional results.
KCNQ2 block baseline	KCNQ2 block	SMILES
-0.82	i	CCC(=O)N1CCc2cc(S(=O)(=O)NC(C(=O)NC3CCCc4ccccc43)C(C)C)ccc21 (stereo unspecified)
1.9	i	O=C(CC(c1ccccc1)c1ccccc1)Nc1ccc2c(c1)OCCO2
0.31	i	COc1cc(Cl)c(CN2CCCC(CO)(Cc3ccccc3)C2)cc1OC (stereo unspecified)
-0.06	i	O=C(Nc1cccnc1)c1cc(-c2ccc(F)cc2)on1
-0.97	i	CCc1nnc(SCC(=O)N2CCc3ccccc32)n1CC
-0.18	i	O=C(NCc1ccccn1)c1cc(-c2ccccc2Cl)nc2ccccc12
0.04	i	Cc1c(NC(=O)c2ccc3c(c2)C(=O)N(CC2CCCO2)C3=O)cccc1C(=O)O (stereo unspecified)
-0.03	i	COc1cc(F)ccc1S(=O)(=O)NCc1cccnc1
1.1	i	CCN(Cc1ccccc1)C(c1ccc(C(F)(F)F)cc1)c1nnnn1C(C)(C)C (stereo unspecified)
-0.57	i	CCOC(=O)N1CCC(Nc2c(Nc3ccc(F)cc3)c(=O)c2=O)CC1
-0.09	i	CCc1cccc(NC(=O)Cn2c(=O)n(CCC(=O)NCC3CCCO3)c(=O)c3cc(OC)c(OC)cc32)c1 (stereo unspecified)
1.9	i	O=C(NC1CC1)c1cc(=O)c2ccccc2o1
0.15	i	O=C(COC(=O)Cc1cccc2ccccc12)Nc1ccccc1-c1ccccc1
-0.87	i	c1ccc(-c2nc3ccccc3c3nc4ccccc4n23)cc1
1.9	i	O=S(=O)(c1cccs1)n1cccn1

2 compounds drawn at random from the list so far, as already listed:
KCNQ2 block baseline	KCNQ2 block	SMILES
1.1	i	CCN(Cc1ccccc1)C(c1ccc(C(F)(F)F)cc1)c1nnnn1C(C)(C)C (stereo unspecified)
0.15	i	O=C(COC(=O)Cc1cccc2ccccc12)Nc1ccccc1-c1ccccc1

Another view of some results above.
> c1ccc(-c2nc3ccccc3c3nc4ccccc4n23)cc1
  KCNQ2 block baseline: -0.87 | KCNQ2 block: i

> O=S(=O)(c1cccs1)n1cccn1
  KCNQ2 block baseline: 1.9 | KCNQ2 block: i

(further entries)
KCNQ2 block baseline	KCNQ2 block	SMILES
-0.03	i	COc1ccc(-c2cc([C@H]3[C@@H]4C=CCC[C@@]4(C)C(=O)N3Cc3ccccc3)ccc2F)cc1
0.08	i	COCCNC(=O)c1ccc(-n2c(SCc3cc(F)ccc3F)nc3ccccc3c2=O)cc1
1.8	i	CCOC(=O)/C(=C/Nc1ccc(F)c(F)c1)[N+](=O)[O-]
1.5	i	COc1cc(/C=N/NC(=S)NC2CC3CCC2C3)ccc1O (stereo unspecified)
0.3	i	CCSc1nnc(-c2ccc(S(=O)(=O)N3CCCC3)cc2)n1C
0.65	i	COc1cc(/C=C2/C(=N)N3C(=NC2=O)SN=C3S(C)(=O)=O)ccc1OC(=O)c1ccco1
0.89	i	NC(N)=NS(=O)(=O)c1ccc(NC(=S)NC(=O)/C=C/c2cccs2)cc1
2.7	i	O=C(c1ccc(F)cc1)N1CCCCC(Sc2nnnn2-c2ccccc2)C1=O (stereo unspecified)
1	i	O=C(COC(=O)/C=C/c1ccc([N+](=O)[O-])cc1)NCc1ccccc1
-2.5	i	Clc1cccc(N2CCN(c3nnnn3-c3ccccc3)CC2)c1
1.4	i	CSc1ccccc1NC(=O)c1ccco1
-1.8	i	CCOc1cc2[nH]c(=O)n(CCCN3CCN(c4ccc(OC)cc4)CC3)c(=O)c2cc1OCC
0.26	i	COc1ccc(CNC(=O)c2[nH]c(C)c(C(C)=O)c2C)cc1
-1.5	i	CCN(CC)CCn1c2c(c(SCC(=O)Nc3cc(C)ccc3C)nc1=O)CCC2
1.3	i	Cn1c(=NC(=O)C2CCCCC2)sc2cc([N+](=O)[O-])ccc21

Two of these compounds in another layout:
SMILES | KCNQ2 block baseline | KCNQ2 block
CC(C)(C)N(Cc1ccccc1)C(=O)COC(=O)CNC(=O)c1ccco1 | -0.24 | i
CCOC(=O)N1CCN(Cc2nc3c(c(=O)[nH]c(=O)n3C)n2Cc2cc(C)ccc2C)CC1 | -3.3 | i

Going on with the list.
KCNQ2 block baseline	KCNQ2 block	SMILES
-0.26	i	O=C(c1ccc(F)cc1F)N1CCCC(c2nc(-c3cccs3)no2)C1 (stereo unspecified)
-2.3	i	COCCCNc1ncnc2nc[nH]c12
-0.69	i	O=C(Nc1nnc(-c2ccco2)o1)C1CC1
-2.9	i	Cn1c(SCc2nc3ccccc3s2)nnc1-c1ccc2c(c1)OCO2
-0.02	i	CSc1ccc(S(=O)(=O)NCCSc2ccccn2)cc1
-1.5	i	O=C(CN(c1ccc(Cl)cc1)S(=O)(=O)c1ccc(Cl)c([N+](=O)[O-])c1)NCCc1ccc(F)cc1
1.4	i	NC1=NC(=O)C(Cc2ccccc2)S1 (stereo unspecified)

The list is partial; count on the stated rates, not on these rows.
